High-throughput results: PubChem BioAssay, several laboratories
WNV NS2B-NS3 inh – WNV NS2B-NS3 proteinase inhibition | P06935 | WNV NS2B-NS3 protease, fluorogenic substrate Ex360/Em465; hits give low values | z-score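 (tested at a level between 10 and 100 µM)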 | 0.18% of 65,000 active | AID 577;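 active = z-score at -3 or under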;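 also: score is relative to mean and spread of the compound wells of a plate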
Target sequence (P06935 1371-1501 limits assumed): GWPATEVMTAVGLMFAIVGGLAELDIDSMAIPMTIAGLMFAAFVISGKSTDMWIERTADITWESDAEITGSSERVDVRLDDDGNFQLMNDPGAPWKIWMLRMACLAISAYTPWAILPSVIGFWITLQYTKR
Target sequence (P06935 1502-1679 limits assumed): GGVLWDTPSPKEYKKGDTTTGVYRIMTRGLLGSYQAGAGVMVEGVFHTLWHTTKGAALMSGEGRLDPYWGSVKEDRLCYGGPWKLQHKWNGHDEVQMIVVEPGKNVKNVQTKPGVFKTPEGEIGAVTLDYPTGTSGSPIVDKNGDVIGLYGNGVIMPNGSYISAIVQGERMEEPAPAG
Hsc70 – small molecules displacing fluorescent ligand from Hsc70 – biochemical, fluorescence polarization, primary screen (AID 568); Hsc70 fluorescence polarization, probe displacement; higher % means a stronger effect; strong numbers were not always called active; one-dose displacement, % at 20 µM; IC50 in µM for titrated hits; 83,000 tested, under 10 active;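 active = displacement above 50% without optical interference and an IC50 on retest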;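 also: ATPase domain with a fluorescein-tagged ATP probe; 0% = vehicle and 100% = excess ADP; read after one hour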
MT1-MMP promoter – inhibitors of MT1-MMP promoter transcription, cell-based, luciferase reporter, luminescence (AID 618); 0.62% of 87,000 active; calls from a first round at 10 µM; hits with a dose series show EC50 in µM; MT1-MMP promoter luciferase reporter cells, luminescence;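 active = over half of the reporter light lost at 10 µM or EC50 under 50 µM; inactive = the rest and hits that failed the dose series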;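 also: actives suppress MT1-MMP promoter-driven transcription so potencies describe inhibitors; HT1080 fibrosarcoma cells; overnight exposure; toxic or luciferase-blocking compounds were not removed from the actives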
Starred values were filed as active, the others as inactive; i = inactive; / = not tested or not shown; + = active, no number. This is a subset, so the mix of outcomes need not match the whole.

smiles,WNV NS2B-NS3 inh,Hsc70,MT1-MMP promoter
COn1cnnc1-c1ccccc1,0.66,-1.6%,i
CC(C)c1nnc(NC(=O)CSc2nc3ccccc3s2)s1,-0.59,-3.1%,i
Cc1ccc(N(Cc2cc(=O)[nH]c3ccccc23)C(=O)c2ccco2)cc1,1.78,3.4%,i
O=C1C2C3C=CC(C3=C3CCCCC3)C2C(=O)N1c1ccccc1 (stereo unspecified),0.26,6.6%,i
CCn1cc(Cl)c(C(=O)N2N=C3/C(=C/c4cccs4)CCCC3C2c2cccs2)n1 (stereo unspecified),/,0.5%,i
CCOC(=O)c1c(C)nc2ncccn12,-0.38,5.0%,i
Cc1ccc(NC(=O)c2nnn(CC(=O)Nc3ccccc3)c2N)cc1C,-0.47,1.8%,i
Nc1nc(CSc2nc3ccccc3[nH]2)cs1,-0.39,3.8%,i
CCC(C)C(=O)Nc1cc(C(=O)OC)ccc1C(=O)OC (stereo unspecified),/,0.4%,i
CN(C)/C=C/C(=O)c1ccc(N2CCN(c3ncc(C(F)(F)F)cc3Cl)CC2)cc1,/,-19.8%,i
CCC(C)NC(=O)c1ccccc1C(=O)NC(C)CC (stereo unspecified),-0.52,-4.8%,i
CCCCc1ccc(CC(=O)O)cc1,0.26,-4.3%,i
Cc1onc(-c2ccccc2)c1C(=O)NC(C)C,0.39,4.3%,i
COc1ccc(-c2cc(N)n(S(=O)(=O)Cc3ccccc3)n2)c(OC)c1,-0.55,-4.8%,i
COc1ccc(OC)c(S(=O)(=O)N2CCCCC2C(=O)O)c1 (stereo unspecified),/,-2.7%,i
CSC1=NCCN1C(=O)C(C)(C)Oc1ccc(Cl)cc1,-0.71,10.6%,i
Nc1nc(N)nc(-c2ccccc2)n1,-0.85,2.9%,i
COc1ccc(N2CCN(C(=O)C(C)(C)Oc3ccc(Cl)cc3)CC2)cc1,-2.51,0.7%,i
O=C(NNC(=O)c1ccncc1)c1ccncc1,/,0.7%,i
Cc1ccc(OCCNC(=O)c2ccco2)cc1C,-0.84,-4.3%,i
CCCCNC(=O)c1ccc(CS(=O)(=O)c2cccc(C(F)(F)F)c2)o1,0.29,2.9%,i
CCC(C)NC(=O)C1CC(c2cccc(OC)c2)=NO1 (stereo unspecified),0.32,-4.4%,i
COc1ccc(C2CC(C(F)(F)F)n3nc(C(=O)Nc4ccc5c(c4)OCO5)cc3N2)cc1 (stereo unspecified),-1.07,-5.7%,i
COC(=O)C1=C(C)OC(N)=C(C#N)C1C1CCCCC1 (stereo unspecified),-0.54,-2.8%,i
COc1ccc(NC(=O)C2CCCN2C(=O)NC2CCCCC2)cc1OC (stereo unspecified),0.84,-1.7%,i
Cn1c(COc2ccc(Cl)cc2)nc2ccccc2c1=O,0.87,-5.0%,i
CCOc1nc(NC(=O)NS(=O)(=O)Oc2cccc(Cl)c2)nc(-c2ccccc2)n1,/,-0.4%,i
Cn1nc(Oc2nc(N3CCOCC3)nc(N3CCOCC3)n2)ccc1=O,/,-4.2%,i
CS(=O)(=O)N(Cc1ccco1)CC(O)Cn1cc(C=O)c2ccccc21 (stereo unspecified),/,-2.6%,i
O=C(O)C=C1C2CC3CC(C2)CC1C3,-0.92,5.6%,i

Shown with each value named: entries from further up
Cc1ccc(N(Cc2cc(=O)[nH]c3ccccc23)C(=O)c2ccco2)cc1
  WNV NS2B-NS3 inh: 1.78 | Hsc70: 3.4% | MT1-MMP promoter: i

Cc1onc(-c2ccccc2)c1C(=O)NC(C)C
  WNV NS2B-NS3 inh: 0.39 | Hsc70: 4.3% | MT1-MMP promoter: i

COc1ccc(N2CCN(C(=O)C(C)(C)Oc3ccc(Cl)cc3)CC2)cc1
  WNV NS2B-NS3 inh: -2.51 | Hsc70: 0.7% | MT1-MMP promoter: i

CCCCNC(=O)c1ccc(CS(=O)(=O)c2cccc(C(F)(F)F)c2)o1
  WNV NS2B-NS3 inh: 0.29 | Hsc70: 2.9% | MT1-MMP promoter: i

Further entries follow.
smiles,WNV NS2B-NS3 inh,Hsc70,MT1-MMP promoter
CCCc1cc(=O)n2[nH]c(C)c(-c3ccccc3)c2n1,0.31,-3.7%,i
CN1CCC(N2CCCC(C(=O)O)C2)CC1 (stereo unspecified),/,4.6%,i
Cn1c(=O)[nH]c(=O)c2c1nc(N1CCC(Cc3ccccc3)CC1)n2Cc1ccccc1,-0.04,-0.1%,i
CSCCC(=O)N1C(C)CCCC1C(=O)O (stereo unspecified),/,2.7%,i
COCCNC(=O)C(c1ccc(C)o1)N(Cc1cccs1)C(=O)c1snc(C(N)=O)c1N (stereo unspecified),-0.89,-3.0%,i
CC1(C)C(=O)NCCN1C(=O)CCC(=O)O,/,-0.6%,i
Cc1ccc(C(=O)C2=C(O)C(=O)N(CCCN(C)C)C23C(=O)N(C)c2ccccc23)o1 (stereo unspecified),-1.23,-3.2%,i
Cc1cccc(NC(=O)CSc2nc3c(c(=O)[nH]2)CCC3)c1C,-0.22,-1.2%,i
O=c1cc(N2CCC(Cc3ccccc3)CC2)[nH]c(=O)n1C1CCCCC1,0.5,1.4%,i
O=S(=O)(CCSc1ccccn1)c1nc2ccccc2s1,1.6,3.8%,i
CCOCCCNC(=O)C1CCCCN1S(=O)(=O)c1ccc(F)cc1 (stereo unspecified),-0.47,-6.3%,i
COc1ccc2c(CC(=O)OCC(=O)c3ccccc3OC)coc2c1,/,-5.0%,i
Cc1onc(-c2ccccc2Cl)c1C(=O)OCC(=O)c1ccc2c(c1)OCCO2,-0.29,-5.5%,i
CNCCOCC(O)CSc1ccccc1 (stereo unspecified),-0.99,-3.6%,i
CCSCCOC(=O)C1=C(C)NC(=O)NC1c1cc(OC)ccc1OC (stereo unspecified),1.76,-3.5%,i
CC(C)CC1C(C#N)=C(N)Oc2n[nH]c(-c3cccs3)c21 (stereo unspecified),/,1.1%,i
CCCC(c1c(C)n(C)n(-c2ccccc2)c1=O)c1c(C)n(C)n(-c2ccccc2)c1=O,-0.48,3.4%,i
CC(=O)N1CCN(CCN=CC2=C(O)CC(c3cccs3)CC2=O)CC1 (stereo unspecified),-0.99,-5.7%,i
COc1ccc(Cn2nnnc2C(c2cc3ccc(OC)cc3[nH]c2=O)N2CCC(C)CC2)cc1 (stereo unspecified),/,-6.3%,i
Cc1ccc2nc3c(cc2c1)c(NC(=O)C1CCCO1)nn3CC(C)C (stereo unspecified),/,-1.1%,i
CC1C/C=C/C=C/C=C/C=C/C(O[C@@H]2O[C@H](C)[C@@H](O)[C@H](N)[C@@H]2O)CC2OC(O)(CC(O)CC3OC3/C=C/C(=O)O1)CC(O)C2C(=O)O (stereo partly specified),-0.24,-6.7%,i
O=C(Nc1ccc(CN2CCOCC2)cc1)c1ccc(-c2cccc(Cl)c2)o1,/,2.4%,i
CN(c1ccccc1C(=O)O)S(C)(=O)=O,-0.68,-7.7%,i
O=C(c1cccs1)N1CCCC1,/,1.1%,i
CC1(C)Cc2c(sc3c2c(=N)n(Cc2ccco2)c(=O)n3CC(=O)Nc2ccc(Cl)cc2)CO1,-0.12,-8.2%,i
N#Cc1nc(COc2ccccc2)oc1N1CCN(Cc2ccccc2)CC1,-0.27,-4.2%,i
CCOCCCNC(=O)Cc1cc(=O)[nH]c(=O)[nH]1,-1.23,-0.3%,i
O=C(NCCN1CCOCC1)c1ccc(-c2ccccc2)cc1,-0.01,7.9%,i
COCCNC(=O)C(C#N)c1nc2ccccc2nc1N1CCN(Cc2ccc3c(c2)OCO3)CC1 (stereo unspecified),-0.32,0.9%,i
COc1cc(NC(=O)C2CCCCC2)c(OC)cc1NC(=O)CN1CCCCC1,-0.17,0.2%,i

Going on with the list:
SMILES,WNV NS2B-NS3 inh,Hsc70,MT1-MMP promoter
Cc1ccc(OCc2nnc(SCC(=O)Nc3ccc4c(c3)OCCO4)n2Cc2ccco2)cc1,-0.76,-3.6%,i
CCCCN(CCCC)c1nc2ccccc2nc1C(C#N)C(=O)NCCCOC (stereo unspecified),0.17,-91.2%,i
CCCCCOC(=O)c1cc(=O)[nH]c2ccccc12,1.74,-3.2%,i
COc1cccc(-c2nc(-c3ccc4c(c3)-c3ccccc3S4(=O)=O)c(-c3ccccc3)[nH]2)c1OC,/,-1.6%,i
O=C(/C=C/c1ccccc1)NNC(=O)C1CC1,/,2.4%,i
COCCCn1c(SCC(=O)NC(C)(C)C)nnc1-c1ccccc1,1.02,1.0%,i
CC(=O)c1cnc(N2CCCCC2)nc1C,-0.46,0.8%,i
Nc1c(S(=O)(=O)c2cccs2)c2nc3ccccc3nc2n1/N=C/c1cccc(O)c1,1.07,-2.0%,i
Cc1ccnc(NC(=O)CCC(=O)N(CC(=O)NC2CCCCC2)c2cccc(C)c2C)c1,0.84,2.2%,i
O=S(=O)(NCc1ccncc1)c1ccccc1,/,0.6%,i
Cc1ccc2c(c1)[nH]c1c(=O)n(CCN3CCCCC3)cnc12,-0.5,-7.5%,i
Cn1c(=O)c2c(ncn2CC(=O)N2CCOCC2)n(C)c1=O,-0.57,-8.4%,i
Cc1nc2c(c(=O)n1CC1CCCO1)c1nc3ccccc3nc1n2Cc1ccc2c(c1)OCO2 (stereo unspecified),-1.15,-58.6%,i
COc1ccc(C(=O)NCCn2cc(SCC(=O)Nc3nnc(C)s3)c3ccccc32)cc1,-1.19,1.8%,i
Cc1nc(SCCC(C)C)c([N+](=O)[O-])[nH]1,/,3.6%,i
CCN(CC)C(=O)c1cc2cc(Br)ccc2oc1=O,1.01,-1.5%,i
COC(=O)c1ccccc1S(=O)(=O)N(Cc1cc2ccc(OC)cc2[nH]c1=O)CC1CCCO1 (stereo unspecified),0.62,1.8%,i
CC(=O)c1cc(C#N)c(SCC(=O)OC(C)C)nc1C,-0.56,-6.8%,i
CN(CC(=O)N1CCN(c2ccccn2)CC1)S(=O)(=O)c1ccc2ccccc2c1,0.1,-2.3%,i
O=C(c1ccc([N+](=O)[O-])cc1)N(Cc1ccc(Cl)cc1Cl)N1C(=O)CCCC1=O,/,-0.7%,i
Cc1cc(C)c(OCC(=O)Nc2nnn(C)n2)c(Br)c1,-0.6,-7.8%,i
O=C(CN1CCN(S(=O)(=O)c2ccc(F)cc2)CC1)Nc1cccc(C(F)(F)F)c1,0.56,8.8%,i
COc1ccc(Cl)cc1Nc1nc(NCCO)nc(N2CCCC2)n1,-0.51,8.5%,i
CCOCC(=O)NCc1ccc2c(c1)OCO2,0.43,0.5%,i
[O-]/[N+](=C\c1ccccc1)[C@@H]1CCCC[C@@H]1/[N+]([O-])=C/c1ccccc1,0.25,-0.2%,i

Next entries:
SMILES,WNV NS2B-NS3 inh,Hsc70,MT1-MMP promoter
COc1ccc2nc(NC(=O)CCn3cccc3)sc2c1,-0.43,2.1%,i
CCOC(=O)c1nnn(CC(=O)N2N=C(c3cccc4ccccc34)CC2c2ccccc2)c1C(=O)OCC (stereo unspecified),/,-0.2%,i
CCCS(=O)(=O)N1CCC(C(=O)NCCCN2CCCC2=O)CC1,1.04,4.7%,i
COc1cc(S(=O)(=O)N2CCN(C)CC2)c(OC)cc1Cl,/,3.4%,i
CC(Oc1ccc(Cl)cc1Cl)C(=O)NCc1ccncc1 (stereo unspecified),0.5,2.9%,i
O=C(c1ccc(F)cc1)N1CCN(C(=O)c2cccnc2)CC1,/,-0.7%,i
Cc1[nH]nc2c1C(c1ccccc1)C1=C(CC(C)(C)CC1=O)N2 (stereo unspecified),0.16,i,i
CCC(=O)N=c1sc2cc(F)cc(F)c2n1C,0.3,1.6%,i
O=S(=O)(NCc1ccco1)c1ccc2c(c1)Cc1ccccc1-2,-0.61,6.1%,i
Cc1cccc(NC(=O)Cn2c(=O)n3nc(CCn4nc(C)cc4C)nc3c3ccccc32)c1,-1.11,-7.4%,i
Cc1ccc(CNC(=O)Cn2c(=O)oc3ccccc32)o1,1.59,-0.2%,i
COc1cc(OC)c(C2C(C(=O)Nc3ccc(C)cc3C)=C(C)Nc3ncnn32)cc1OC (stereo unspecified),-0.84,-0.1%,i
CCn1c(=O)n(CC(=O)NCc2ccco2)c(=O)c2ccccc21,0.1,-2.9%,i
COc1ccc(C2CC(=O)c3cnc(NC(=O)c4ccccc4)nc3C2)c(OC)c1 (stereo unspecified),0.23,-3.0%,i
Cc1occc1C(=O)Nc1sc2c(c1C(N)=O)CCCCC2,0.14,-4.7%,i
O=c1c2ccccc2cnn1-c1ccc(Cl)cc1,/,-1.4%,i
O=C(COC(=O)C1CC(=O)N(Cc2ccco2)C1)c1ccc(OC(=O)c2ccco2)cc1 (stereo unspecified),-0.45,5.3%,i
O=C(CCl)Nc1cccc(-c2cnc3ccccc3n2)c1,/,-0.3%,+
O=C(CN(Cc1ccco1)C(=O)CNS(=O)(=O)c1ccc(F)cc1)NCc1ccc(F)cc1,-1.19,-3.7%,i
CCOc1ccc(/C=C\C(C)=N\O)cc1,1.74,-3.9%,i
